BasE inh – inhibitors of Acinetobacter baumannii siderophore enzyme BasE | inhibition, % (concentration not given with the values) | 0.1% of 84,000 active | purified BasE, fluorescence polarization binding displacement;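 active = both replicates above 25% with normal brightness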;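 also: 0% = negative plate control signal and 100% = positive plate control signal; stock transfer was 100 nL into about 30 µL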
KSHV LANA nucl – LANA-nucleosome interaction inhibition; AID 720717; FITC-LANA1-23 / chicken nucleosome fluorescence polarization; hits give low values; 0.3% of 51,000 active; z-score (test concentration not listed);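 active = both repeat wells score below -2 in polarization z-score versus plate sample wells, excluding overly bright wells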;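 also: 100 nL library stock added to about 30 µL; numbers are from one replicate; some results filed as inactive read as strong as hits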
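Assay system: FITC-LANA peptide and chicken nucleosomes; input: 240 nM purified chicken nucleosomes (480 nM peptide binding sites), final; also added: 50 nM FITC-LANA1-23 probe; medium: TEN-BT buffer, pH 7.5; doses: pin-transferred compound, 100 nL; times: 10–45 min, room temperature; technique: fluorescence polarization; replication: duplicates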
* hit, by the source's call; . = not tested or not shown; & = joins results of further samples.

SMILES	BasE inh	KSHV LANA nucl
CCc1cc(CC)c(CO)c(CC)c1/C=N/O	-1.1	-0.6
Cc1c(Cl)cccc1NC(=O)CCN1CCC(C(N)=O)CC1	0.6	0.44
Cc1cc(NC(=O)C2=C(O)c3ccccc3S(=O)(=O)N2C)no1	-2.0&-1.8	-0.53&0.55&-0.24
CCNc1ccc2noc3c2c1C(=O)c1ccccc1-3	17	-9.6
Cc1ccccc1-c1noc(COC(=O)CNC(=O)c2ccc(Cl)c(Cl)c2)n1	-8.2	.
O=c1[nH]c2ccccc2nc1CCc1ccccc1	1.5	.
O=C(O)COCCN1CCN(C(c2ccccc2)c2ccc(Cl)cc2)CC1 (stereo not given)	-1.7&1.0	-0.71&0.094&0.86
CSC(=NCc1sccc1COc1ccc(Cl)cc1)NC#N	0.9	.
O=C1CCCN1c1ccc(OCc2ccc(F)cc2)cc1	0.4	.
CC1CCCN(CC(=O)Nc2ccc(Cl)c(C(F)(F)F)c2)C1 (stereo not given)	1.1	.
CCCOC1(NC(=O)c2ccccc2)C(C)=CC(=O)C=C1C	2.7	0.41
Cc1cc(C(=O)CSc2nnc(CN3CCCC3)o2)c(C)n1CCC(C)C	-5.2	.
O=C(Cc1cc(=O)[nH]c(=O)[nH]1)NCCN1CCOCC1	-0.2	-0.27
NNC(=O)c1nsnc1-c1ccccc1O	1.0	0.34
CC1CCN(C(=O)c2cc(-c3ccncc3)nc3ccccc23)CC1	-3.9	.
CCC(=O)NNc1nc2c(OC)ccc(OC)c2s1	1.1	-0.088
COC(=O)C(C)Oc1ccc(Oc2nc(Cl)ccc2Cl)cc1 (stereo not given)	4.6	.
CNC(=O)c1cn(-c2ccccc2)c(=O)c2ccccc12	.	0.53
COC(=O)c1c(NC(=S)Nc2ccn(C)n2)sc2c1CCCC2	0.0	-0.2
O=C(c1cc2nc(-c3ccccc3)cc(-c3ccccc3)n2n1)N1CCCC1	1.3	0.2

Some of the entries above in another layout:
Values in the order: BasE inh, KSHV LANA nucl
> CNC(=O)c1cn(-c2ccccc2)c(=O)c2ccccc12
 : ., 0.53
> COC(=O)c1c(NC(=S)Nc2ccn(C)n2)sc2c1CCCC2
 : 0.0, -0.2

Next structures.
SMILES	BasE inh	KSHV LANA nucl
O=C(Nc1ccc(C(F)(F)F)cc1)C1CCC1	0.8	0.069
CCc1ccc(NC(=O)CN(C)S(=O)(=O)c2cccc3nsnc23)cc1	0.5	-0.63
Cc1ccccc1OC1C(=O)N(C2CCCC2)C1c1ccc2c(c1)OCO2 (stereo not given)	1.8	-0.82
CC1(C)CC(n2c(=O)c3c(n4cnnc24)-c2ccccc2CC32CCCCC2)CCO1 (stereo not given)	0.2	0.72
COc1ccc(CN2C(=O)c3ccccc3C2C(=O)NC2CCCC2)c(OC)c1 (stereo not given)	2.1	-1
COc1ccc(CN(C(=O)NC2CCCC2)C2CCN(C(C)=O)CC2)cc1	0.0	-0.24
O=C(NC1CC1)C1CCN(C(=O)c2ccc(Cl)cc2)CC1	-3.5	0.43
CN(C)C(=S)SCC(=O)Nc1ccc(C#N)cc1	-0.5	.
CCOC(=O)C1C(=O)OC2(CCCCC2)C1C#N (stereo not given)	2.3	-0.12
CSc1scc2c1C(=O)CC(C)(C)C2	-0.9	.
COc1cc(C(=O)Nc2ccc3c(c2)CCN3C(C)=O)cc(OC)c1OC	-0.6	0.14
CC(C)(C)NC(=O)CCCN1C(=O)/C(=C/c2ccccc2)SC1=S	3.0	.
CC(C)c1ccccc1NC(=O)c1cccs1	0.8	0.2
C=CCOc1cccc(C(=O)NCCC)c1	-1.5	0.45
CC1=CC(C)(C)N(C(=O)c2ccccc2)c2ccccc21	0.8	-0.1
O=C(CSc1ccccn1)c1ccc(F)cc1	0.3	2.1
CN(C)Cc1nc2ccccc2c(=O)n1Cc1nc(-c2cc3ccccc3o2)cs1	0.4	.
CC(=O)N1CCN(S(=O)(=O)c2cccc(C(=O)Nc3ccnn3C(C)C3CC3)c2)CC1 (stereo not given)	0.6	.
O=[n+]1cc(-c2cccc(C(F)(F)F)c2)n([O-])c2c1CCC2	2.0	0.32
c1csc(Cc2nc3c4ccccc4ncn3n2)c1	0.8	-1.5
COC(=O)CCC(=O)Nc1ccc(Cl)cc1	2.9	-0.14
COC(=O)Cc1c(C)c2ccc(O)c(C)c2oc1=O	-9.1	1.4
O=c1c2ccccc2n(Cc2ccccc2)c(=O)n1Cc1nc(-c2ccccc2)no1	0.6	.
Cc1cc(C)cc(CC(CC(=O)Nc2nncs2)C(=O)Nc2nncs2)c1 (stereo not given)	-1.2	0.34
C=CCn1c(=O)c2c3c(sc2n2c(Nc4ccccc4)nnc12)CCCC3	1.6	-0.41
O=C(OCc1nc2ccccc2s1)c1cc(=O)[nH]c(=O)[nH]1	-0.7	.
Cc1ccc(N2C(=O)NC(=O)/C(=C\c3ccco3)C2=O)c(C)c1	7.1	.
CC(C)S(=O)(=O)c1c(SCC#N)sc(C#N)c1N	-1.5	-0.69
CC(=O)N/C(=C\c1ccccc1)C(=O)OCc1c(C)noc1C	0.6	.
Cc1c(C#N)c2ncnc(-c3ccccc3)c2n1Cc1ccccc1	1.0	-0.74
Cc1ccc2nc(-c3ccsc3)c(NCC(=O)NN)n2c1	1.2	-1.2
CS(=O)(=O)N1CCC(NC(=O)Cc2ccccc2)CC1	2.6	0.11
CCN(CC)S(=O)(=O)c1ccc(N2CCN(C(=O)c3ccccc3)CC2)nc1	0.3	.
C1CCN=C(Nc2nc3c(s2)CCCC3)CC1	1.8	.
COc1ccc(C(=O)OCC(=O)Nc2ccc3[nH]c(=O)[nH]c3c2)cc1	0.0	.
Cc1ccccc1NC(=O)CCCn1nc(C)c2c(C)n(-c3ccccc3)nc2c1=O	-2.5	.
CCOC(=O)c1c(-c2ccccc2)nc(=O)[nH]c1-c1ccc(-c2ccc(F)cc2)o1	-6.0	0.14
COc1ccc(N2CCN(C(=O)C(CCSC)N=C3NS(=O)(=O)c4ccccc43)CC2)cc1 (stereo not given)	0.3	.
CCC(C)(C)NC(=O)c1cc(Cl)ccc1OC	-0.6	0.65
CCc1ccc(NC(=O)C(OC)c2ccccc2)cc1 (stereo not given)	-2.5	1.2

An excerpt from above in order of length of the SMILES, lowest first.
SMILES	BasE inh	KSHV LANA nucl
O=c1[nH]c2ccccc2nc1CCc1ccccc1	1.5	.
CCc1ccc(NC(=O)C(OC)c2ccccc2)cc1 (stereo not given)	-2.5	1.2
CS(=O)(=O)N1CCC(NC(=O)Cc2ccccc2)CC1	2.6	0.11
Cc1ccc(N2C(=O)NC(=O)/C(=C\c3ccco3)C2=O)c(C)c1	7.1	.

Single records, from the list above. Order of screens: BasE inh | KSHV LANA nucl
Listed for COc1ccc(C(=O)OCC(=O)Nc2ccc3[nH]c(=O)[nH]c3c2)cc1 = 0.0 | .
Listed for CC(=O)N/C(=C\c1ccccc1)C(=O)OCc1c(C)noc1C = 0.6 | .
Listed for Cc1ccccc1NC(=O)CCCn1nc(C)c2c(C)n(-c3ccccc3)nc2c1=O = -2.5 | .
Listed for Cc1ccc(N2C(=O)NC(=O)/C(=C\c3ccco3)C2=O)c(C)c1 = 7.1 | .

Further structures:
SMILES	BasE inh	KSHV LANA nucl
Nc1c(S(=O)(=O)c2ccccc2)c2nc3ccccc3nc2n1-c1cccc(S(N)(=O)=O)c1	0.8	.
Cc1ccccc1OCC(O)CNC(C)C1CC2CCC1C2 (stereo not given)	3.2	.
COCCN1C(=O)c2ccccc2C(C(=O)N2CCN(c3ccccc3OC)CC2)C1c1ccc(F)cc1 (stereo not given)	-2.5	1.2
COc1ccc(CCNC(=O)COc2ccc(-c3noc(C)n3)cc2)cc1OC	0.1	.
O=C(/C=C/c1ccccc1)C1=C(O)C(=O)N(CCO)C1c1ccc2c(c1)OCO2 (stereo not given)	1.0	0.14
CC(C)(C)C(=O)NNc1ncnc2sccc12	0.7	-0.31
COc1ccc(C2CCN(C(=O)N(C(C)C)C(C)C)CC2)cc1	1.0	0.54
NC(=O)c1cc(NC(=O)/C=C/c2cccc(F)c2)cc(C(N)=O)c1	1.7	.
Cc1ccc(NC(=O)CSc2nc3ncccc3[nH]2)cc1	-0.8	-0.78
Cc1ccc(S(=O)(=O)NC(C)C(c2cccs2)N2CCN(C)CC2)cc1 (stereo not given)	0.2	-1.5
COc1ccc(C2(C(=O)NC(C)C)CCOCC2)cc1	-0.9	-0.82
O=C1c2ccccc2C(=O)N1CC1CCCN2CCCCC12 (stereo not given)	1.5	-1.4
O=C(COc1cc(O)c2c(=O)cc(-c3ccccc3)oc2c1)c1ccccc1	-2.4	.
CCN(C(=O)c1sc2nc3n(c(=O)c2c1C)CCCC3)c1ccccc1	1.4	0.44
CCC(C)C1NC(=S)N(C2CCCCC2)C1=O (stereo not given)	-1.7	.
O=C(O)C1CC=CCC1C(=O)N1CCOCC1 (stereo not given)	.	-0.5
CCCn1c(SCc2nc3ccccc3[nH]2)nc2ccccc21	-2.0	0.64
O=C(COc1nc2ccccc2nc1N1CCOCC1)N1CCc2ccccc2C1	1.2	.
Cc1cc(CSc2ccccc2C(=O)O)on1	-3.3	.
CCS(=O)(=O)CCSc1nc(C)cc(C)c1C#N	0.7	2.1
CC(C)(C)OC(=O)N1CCCN(S(=O)(=O)c2ccc(-n3cccn3)cc2)CC1	-1.0	0.23
S=c1[nH]nc(COc2ccccc2Cl)n1C1CC1	-5.9	.
CC(Sc1nc2sc3c(c2c(=O)[nH]1)CCCC3)C(=O)Nc1nccs1 (stereo not given)	-0.4	-0.48
CCN1CCN(C(=O)CCC(=O)N2CC3CCCN3c3ccccc32)CC1 (stereo not given)	2.5	-0.73
O=C(COC(=O)c1ccc(S(=O)(=O)N2CCCC2)cc1)NCc1ccccc1	1.1	.
O=C(O)C1OC(Oc2cc(O)c3c(=O)cc(-c4ccccc4)oc3c2O)C(O)C(O)C1O (stereo not given)	0.9	-1.1
Cc1ccc(-n2nc(CC#N)c(C#N)c2N)cc1	-2.5	.
CC1(C)OC2C(CO)OC(n3cnc4c(=O)[nH]cnc43)C2O1 (stereo not given)	0.2	.
CC(=O)N1CCN(C2=NC(=O)C(=C3CCCCC3)S2)CC1	-1.0	0.72
Cc1cc(=O)n(CC(=O)Nc2cc(Cl)ccc2C)c(C(C)C)n1	3.1	.
CCOC(=O)[C@H](CCc1ccccc1)N[C@@H](C)C(=O)N1CCC[C@H]1C(=O)O	2.4	0.36&-0.29&0.36
Cc1nn(Cc2ccccc2Cl)c(C)c1NC(=O)c1noc2c1CC(C(C)(C)C)CC2 (stereo not given)	0.5	0.65
O=C(CC1(c2ccc(Cl)cc2)C(=O)c2ccccc2C1=O)N1CCOCC1	1.1	-0.24
CCOc1cccc(/C(O)=C2/C(=O)C(=O)N(Cc3ccncc3)C2c2ccccc2)c1 (stereo not given)	-1.9	1.4
CC1(C)Cc2ccccc2C2=NNC(=O)C2=N1	-5.4	0.0095
COc1ccc(-c2nc(NC(=O)c3cccc(-n4cnnn4)c3)sc2C)cc1	4.2	.
Cc1ccc(C(=O)NCCN2CCNC2=O)cc1	-0.9	.
CCc1nc2c(c(=O)[nH]1)C1(CCCCC1)Cc1ccccc1-2	3.2	0.2
O=c1cc(O)c2sc3nc4c(c(C(F)(F)F)c3c2[nH]1)CCCCC4	-0.5	.
CCOC(=O)C1=C(C)NC(C)=C(C(=O)OCC)C1C(=O)OCc1cc(=O)oc2cc(O)ccc12	0.1	.

In the list so far, three have a furan ring, fused or not.
SMILES	BasE inh	KSHV LANA nucl
CN(C)Cc1nc2ccccc2c(=O)n1Cc1nc(-c2cc3ccccc3o2)cs1	0.4	.
Cc1ccc(N2C(=O)NC(=O)/C(=C\c3ccco3)C2=O)c(C)c1	7.1	.
CCOC(=O)c1c(-c2ccccc2)nc(=O)[nH]c1-c1ccc(-c2ccc(F)cc2)o1	-6.0	0.14

Continued.
SMILES	BasE inh	KSHV LANA nucl
O=C(CN1CCCc2ccccc21)Nc1ccccc1	1.8	0.16
CNC(=O)NC(=O)CSc1nnc(-c2ccco2)o1	-1.3	.
Nc1cccc(F)c1-c1ncon1	-0.7	2
CCN1C(=O)CCC1(C)C(=O)NC1CCCC1 (stereo not given)	-0.3	0.87
COc1ccccc1C(=O)N/C(=C\c1ccccc1)C(=O)N1CCOCC1	0.5	.
COc1ccc(C2(C(=O)N3CCC(n4nc(-c5ccccc5)oc4=O)CC3)CC2)cc1	1.1	-0.1
O=C(NCc1ccc2c(c1)OCO2)c1cccc(C(=O)NCc2ccc3c(c2)OCO3)c1	-1.1	-0.81
CC1=C(C(=O)OCC2CCCO2)C(c2ccc(C)o2)C2=C(CCCC2=O)N1 (stereo not given)	-0.8	0.051
CCCCn1cc(C(=O)c2cc(C)ccc2O)cc(C#N)c1=O	-0.6	.
CCCN(CC1CC1)C(=O)CSc1nnc(Nc2ccccc2F)s1	-0.5	.
O=S1(=O)N=C(Cl)c2ccccc21	2.1	.
COc1cc(/C=C/C(=O)OCC(=O)Nc2cccc(F)c2)ccc1O	1.2	.
CCc1ccc(N2CC(C(=O)NC(C)CC)CC2=O)cc1 (stereo not given)	0.6	0.34
N#CC(Cc1cccnc1)C(=O)Nc1ccccc1 (stereo not given)	-0.4	0.17
Cc1[nH]c2ccc(C(=O)Nc3ccccc3N3CCOCC3)cc2c1C	-0.4	.
CSc1ccc(C(N)CCO)cc1 (stereo not given)	.	0.79
COc1cccc(/C=N/NC(=O)COc2c(C)cccc2C)c1O	0.3	0.44
CC1=C/C(=N/NC(=O)COc2cc(C)ccc2C(C)C)CC1	2.6	.
C=CCn1c(=C(C#N)C#N)s/c(=C\c2ccccc2OC(F)F)c1=O	-0.1	.
O=C(Nc1ccccc1)N(Cc1c[nH]c2ccccc12)C1CCCC1	4.6	0.077

Assay outcomes (PubChem BioAssay)

This is a subset; rates above refer to the full screens.
